ClpP mod = qHTS Assay for Activators of ClpP | Potency, µM (top dose mostly 57.5 µM), inactives show at the highest dose activity change, negative = active | hit rate 1.9% among 340,000 | purified B. subtilis ClpP, FRET peptide cleavage, 20 min | AID 651965, 2013; active = well fitted falling curve with a large enough effect; inconclusive = small, poorly fitted or top-dose-only effect; inactive = no such curve, though single readings can be large or run the other way; further: potency means the concentration at half of the fitted maximal effect; the source files actives as falling curves though it sought activators and does not explain the sign; nearly all actives have a fitted effect of over 65% in size; many hits overshoot -100%
Target sequence (P80244 whole entry, looked up): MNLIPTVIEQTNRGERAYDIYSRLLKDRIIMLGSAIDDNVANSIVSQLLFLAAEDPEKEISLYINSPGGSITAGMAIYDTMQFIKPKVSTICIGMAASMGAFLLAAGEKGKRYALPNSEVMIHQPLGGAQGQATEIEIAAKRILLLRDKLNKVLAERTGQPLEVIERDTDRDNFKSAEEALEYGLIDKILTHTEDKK
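FRET quenching reversal measured ClpP activation: 10 microg/mL B. subtilis ClpP at pH 8 with the FRET-FV decapeptide, read at 430 nm after 320 nm excitation. The 20-min minus 0-min signal was scaled between DMSO/no-enzyme wells and ADEP (5.8 microM final).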
gsp ag = qHTS for Agonist of gsp, the Etiologic Mutation Responsible for Fibrous Dysplasia/McCune-Albright Syndrome: qHTS | gsp mutant cells, cAMP HTRF, 30 min; control for the full effect not named in the record | Potency, µM (doses to about 76.9 µM), inactives show at the highest dose activation (cAMP increase), most hits filed as activators | hit rate 0.13% among 340,000; active = well fitted activation curve with a large enough effect; inconclusive = small, poorly fitted or top-dose-only effect, or another doubt; inactive = no such curve, though single readings can be large or run the other way; cell line not stated here;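 further: phosphodiesterase inhibitor Ro 20-1724 added with compounds to block cAMP breakdown; potency means the concentration at half of the fitted maximal effect; nearly all actives have a fitted effect of over 60% in size; about a fifth of the inactives were tested at one dose only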
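Cells in DMEM/10% FBS with G418 were pretreated with compounds in DMSO plus […] (300 uM stock) for 30 min at 37C. cAMP was measured by HTRF (cAMP-d2 plus anti-cAMP antibody-K) after 30 min at room temperature.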
Menin-MLL FL inh = qHTS Assay for Inhibitors Targeting the Menin-MLL Interaction in MLL Related Leukemias: Competition With Fluorescein Labeled MLL-derived Peptide; FP activity change, % at 61.4 µM; 290,000 tested, under 10 active; AID 1766, 2009; Fluorescence polarization, fluorescein-MLL peptide displacement from menin; inconclusive = falling polarisation curve, or a change in total fluorescence; inactive = total fluorescence flat and polarisation flat or rising; no compound was filed as active; the % refers to the polarisation; negative = inhibition;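 further: % of control where 0% means no effect; inhibitors lower the polarisation; unlabelled MLL peptide was the positive control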
gsp antag = qHTS for Antagonists of gsp, the Etiologic Mutation Responsible for Fibrous Dysplasia/McCune-Albright Syndrome: qHTS; gsp-mutant cells, cAMP HTRF, 30 min; control for the full effect not named in the record; Potency, µM (top dose mostly 76.9 µM), for the others: top-dose activity change, negative = inhibition, usual class: inhibitors; hit rate 0.4% among 340,000; active = falling curve of any shape with a large fitted effect; inconclusive = falling curve, mostly with a smaller effect; inactive = flat or rising curve; cell line not stated here;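 further: intracellular cAMP measured with PDE inhibitor Ro 20-1724 present during compound exposure; potency means the concentration at half of the fitted maximal effect; on the % scale 0 is the no-effect control and ±100 the full control effect; nearly all actives have a fitted effect of over 65% in size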
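Cells in G418 medium, seeded 16-24 h, 37C; buffer exchange to DPBS + 1 mM CaCl2, 0.5 mM MgCl2, 0.05% BSA; cpds in DMSO + […] (300 uM stock), 30 min 37C; HTRF cAMP detection.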
TRPML1 blocker = qHTS for Inhibitors of the Human Mucolipin Transient Receptor Potential 1 (TRPML1); Mucolipin-1 (Homo sapiens), Q9GZU1; TRPML1-inducible cells, Ca2+ dye fluorescence, FDSS; hits give low values; inhibition of EC80 agonist-evoked calcium signal; activity change, negative = inhibition, % (test concentration not listed); hit rate 0.02% among 390,000; AID 624415, 2012; in the data active means activity change below about -50%; inconclusive means about -30% to -50%; inactive means above about -30%;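 further: stimulus is agonist 54-4 at its EC80 concentration; on the % scale 0 is the no-effect control and ±100 the full control effect; compound concentration not given in the record; the text of the record puts the active cut at -80%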
Target sequence (Q9GZU1 whole entry, looked up): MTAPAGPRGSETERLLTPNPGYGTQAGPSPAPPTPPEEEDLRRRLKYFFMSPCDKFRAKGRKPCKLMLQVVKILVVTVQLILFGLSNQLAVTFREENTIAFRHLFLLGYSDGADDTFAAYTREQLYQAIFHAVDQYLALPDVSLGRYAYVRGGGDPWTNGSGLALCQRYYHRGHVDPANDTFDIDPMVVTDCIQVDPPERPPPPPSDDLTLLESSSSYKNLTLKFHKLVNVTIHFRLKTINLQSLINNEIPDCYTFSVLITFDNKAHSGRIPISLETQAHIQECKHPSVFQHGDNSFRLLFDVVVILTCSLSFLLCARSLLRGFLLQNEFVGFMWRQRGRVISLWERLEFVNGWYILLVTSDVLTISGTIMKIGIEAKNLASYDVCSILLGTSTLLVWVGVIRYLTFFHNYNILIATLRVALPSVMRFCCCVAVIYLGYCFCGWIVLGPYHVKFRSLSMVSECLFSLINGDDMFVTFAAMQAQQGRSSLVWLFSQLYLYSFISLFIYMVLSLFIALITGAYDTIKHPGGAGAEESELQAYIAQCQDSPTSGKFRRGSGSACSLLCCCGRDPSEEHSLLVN
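Tet-induced TRPML1-DL cells loaded with Ca8 no-wash calcium dye were read kinetically on FDSS. Compound addition was followed by EC80 agonist 54-4 (4 uM final); inhibition was read over 110 s.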
TRPML1 agonist = qHTS for Agonists of the Human Mucolipin Transient Receptor Potential 1 (TRPML1) | hit rate 0.12% among 410,000 | activation, % (test concentration not listed) | TRPML1-expressing cells, Ca2+ dye fluorescence, FDSS; host cell line not named in the record; reference of the full effect not given here | AID 624414, 2012 | Mucolipin-1 (Homo sapiens), Q9GZU1; in the data active = activation above about 50%; inconclusive = about 30% to 50%; inactive = below about 30%; further: 0% is about no effect; the text of the record puts the active cut at 80%
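Tet-induced TRPML1-DL cells, 1,500 per well, cultured overnight, were loaded with a no-wash Ca2+ dye for 45–90 min. Calcium fluorescence was recorded on the FDSS for 110 s after compound addition, before the EC80 agonist (4 uM 54-4) was added.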
* marks the source's active call; other numbers are inactive results; ? = inconclusive; / = no result given; [ ] = dose if it differs, or a comment.

SMILES | ClpP mod | gsp ag | Menin-MLL FL inh | gsp antag | TRPML1 blocker | TRPML1 agonist
Cn1c(=O)c(C(=O)NNC(=O)c2cccc(Cl)c2)c(O)c2ccccc21 | / | -28% | 1.6 | -8% | 9 | -0.7
CC(OC(=O)COc1ccccc1Cc1ccccc1)C(=O)N(C)c1ccccc1 (configuration not stated) | -1.4% | 3% | / | -14% | -5 | 1.3
COc1cc(C=O)ccc1OC(=O)c1cccnc1 | -4.8% | 11% | 5.4 | 7% | 0 | 0.6
O=C(Nc1ccon1)c1sc2ccccc2c1Cl | -6.3% | ? | 1.1 | -3% | -14 | 2.0
O=C(c1ccc2c(c1)N(Cc1ccc(Cl)cc1)C(=O)c1ccccc1S2(=O)=O)N1CCN(c2ccccn2)CC1 | 0.0% | / | / | / | -1 | -0.5
COc1ccccc1NS(=O)(=O)c1cccc(C(=O)N/N=C/c2ccc(OCC(=O)O)cc2)c1 | / | 24% | 0.3 | 0% | -12 | 1.5
CC(C)CN(C(=O)c1ccco1)c1nc2ccccc2s1 | / | -5%[15.4 µM] | 2.8 | 8% | -8 | 2.3
COc1cccc(C2/C(=C(/O)c3ccccc3)C(=O)C(=O)N2Cc2ccco2)c1 (configuration not stated) | / | 20%[15.4 µM] | 5.8 | 2% | 13 | 1.3
O=C(Cc1cccc2ccccc12)Nc1ccccc1 | / | 2% | / | 3% | -5 | 1.8
CCOc1ccccc1-c1noc(CCCC(=O)NC2CCCCC2)n1 | 0.6% | 21%[15.4 µM] | 7.5 | -22% | -2 | -1.8
CCOCCCNC(=O)c1c(N)n(-c2ccc(S(N)(=O)=O)cc2)c2nc3ccccc3nc12 | ? | -7% | 1.1 | -1% | 6 | -1.2
COc1cc(/C=C/C(=O)OCC(=O)NCC2CCCCC2)ccc1O | -22% | 7% | / | -6% | 12 | -0.4
CN(Cc1ccccc1)S(=O)(=O)c1ccc2c(c1)NC(=O)CC(=O)N2 | 0.6% | -9% | -1.2 | 8% | 35 | 1.7
COc1ccc(Cn2c(C)nc3c(c2=O)c2nc4ccccc4nc2n3Cc2ccco2)cc1 | ? | ? | / | -1% | / | /
Cc1nc(N2CCC(C)CC2)c2c(C)c(C(=O)Nc3ccc(C(F)(F)F)cc3)sc2n1 | / | 20%[15.4 µM] | -3.0 | 1% | -15 | 0.4
C=CCn1c(O)c(C2=c3ccccc3=NC2=O)sc1=Nc1ccc(O)cc1 | 1.2% | 7% | 3.5 | -13% | -6 | -0.3
N#CCNC(=O)c1cccn1-c1ncc(C(F)(F)F)cc1Cl | / | -24% | 0.9 | 7% | 8 | 0.7
COC(=O)c1ccc(NC(=O)c2ccc(NC(=O)c3ccco3)cc2)cc1 | -8.1% | -52%[inhibitor] | / | 9% | 13 | 1.4
O=C(O)/C=C/C(=O)NCc1ccccn1 | / | 9%[15.4 µM] | ? | / | 17 | -0.2
COc1cc(CC(=O)Oc2ccc3c(c2)OCO3)cc(OC)c1OC | -2.6% | -11% | 1.7 | -8% | -1 | -1.0
CN(C)/C(CN1CCCCC1)=C1\N=C(c2ccccc2)OC1=O | 0.1% | -45% | 5.2 | 3% | 3 | 0.6
Cc1cc(C)cc(N(CCC#N)C(=O)CSc2n[nH]c(N)n2)c1 | -2.4% | -1%[15.4 µM] | / | 10% | 4 | 0.3
O=C1N(Cc2cccc(Cl)c2)C[C@@H]2C[C@@H](c3ccccn3)N3CCC[C@@]123 | 0.4% | 14% | -1.2 | 2% | 10 | -0.8
COC(=O)C1CCN(C(=O)COC(=O)C2CCN(S(=O)(=O)c3ccc(C)c(C)c3)CC2)CC1 | -3.6% | 0%[15.4 µM] | / | -4% | 13 | 1.0
CN1CCN(C(N)=NC(=O)c2ccccc2)CC1 | -0.6% | ? | -1.7 | 16% | 10 | -0.4

An excerpt from further up, as a working copy:
SMILES | ClpP mod | gsp ag | Menin-MLL FL inh | gsp antag | TRPML1 blocker | TRPML1 agonist
Cn1c(=O)c(C(=O)NNC(=O)c2cccc(Cl)c2)c(O)c2ccccc21 | / | -28% | 1.6 | -8% | 9 | -0.7
CC(OC(=O)COc1ccccc1Cc1ccccc1)C(=O)N(C)c1ccccc1 (configuration not stated) | -1.4% | 3% | / | -14% | -5 | 1.3

Continuation.
SMILES | ClpP mod | gsp ag | Menin-MLL FL inh | gsp antag | TRPML1 blocker | TRPML1 agonist
O=C(CCC1CCCCC1=O)c1ccccc1 (configuration not stated) | -2.0% | -20% | 1.2 | 0% | 3 | -0.6
COC(=O)c1ccc(CSc2ccccc2C)o1 | -0.8% | -6% | 3.5 | -6% | -9 | -0.1
CCOC(=O)c1ccc2c(c1)N(Cc1cc(C)ccc1C)C(=O)c1ccccc1S2(=O)=O | -2.6% | / | / | / | 28 | 1.6
CSCCC(NC(=O)c1ccco1)C(=O)O (configuration not stated) | -1.3% | 26% | -0.5 | 1% | 5 | -0.1
COc1cccc(-c2cc(C(=O)NCc3ccccc3)no2)c1 | -6.4% | / | / | / | 25 | 1.6
S=c1[nH]c2cc(Br)cnc2[nH]1 | -10.0% | 3%[15.4 µM] | -3.6 | -6% | -2 | -0.5
CCc1ccccc1NC(=O)C1C2C=CC(O2)C1C(=O)O (configuration not stated) | / | 13% | 4.8 | 12% | -4 | -0.7
COCCN1C(=O)N[C@@H](c2cccc(C(F)(F)F)c2)[C@@H](C(=O)OC)[C@H]1C | -0.1% | -23% | -1.6[11.7 µM] | -1% | 30 | 0.4
CCn1ccc2c(OCC(=O)NCc3ccc(C)cc3)cccc2c1=O | -26% | / | / | / | 18 | 0.4
COC(=O)C1=C(C)N(c2ccc(F)c(Cl)c2)C(=O)C1 | -0.3% | 20% | 2.4 | -8% | 12 | -0.1
O=C(CN(C(=O)CSc1nc2ccccc2o1)c1ccccc1)NC1CCCCC1 | -0.3% | -42%[inhibitor] | 4.8 | -9% | 12 | 1.1
NNC(=O)CNC(c1ccccc1)c1cc(Br)ccc1NC(=O)c1cccc(Cl)c1 (configuration not stated) | -8.3% | -12% | -0.5 | 1% | -16 | 0.5
CC(C)(O)CC[C@@H](O)[C@](C)(O)C1CC[C@@]2(O)C3=CC(=O)[C@]4(O)C[C@@H](O)[C@@H](O)C[C@]4(C)C3CC[C@]12C (some centres not stated) | -1.9% | / | / | 6% | 4 | 0.5
CCC1(C)Cc2c(sc3nn[nH]c(=O)c23)CO1 (configuration not stated) | -1.5% | 37% | -1.7 | -8% | -17 | 1.0
Cc1cc(S(=O)(=O)N2CCCC2)c(C)s1 | 1.6% | -33%[inhibitor] | 0.0 | -7% | 17 | -0.2
O=C1CCC([N+](=O)[O-])C(c2cccc([N+](=O)[O-])c2)N1 (configuration not stated) | / | -3%[15.4 µM] | -1.6 | / | -9 | -0.5
CCn1c(Cc2ccc(OC)cc2)nnc1SCC(=O)Nc1ccc(N2CCOCC2)cc1 | -2.1% | -3%[15.4 µM] | 1.5 | 8% | 8 | -1.2
Cc1cc(-c2ccc(C)c(S(=O)(=O)NCCCN3CCN(c4ccccc4F)CC3)c2)on1 | 1.1% | -14% | / | ? | -5 | 1.8
COc1cc(C2c3cc4c(cc3OC(NNC(N)=O)C2C)OCO4)cc(OC)c1OC (configuration not stated) | -7.0% | 2% | / | 14% | 17 | 3.3
CC1(C)Cc2c(cnn2-c2cccc(F)c2)C(NC(=O)CSc2ccncc2)C1 (configuration not stated) | -1.5% | -3%[15.4 µM] | / | -5% | 5 | -0.9
CCOC(=O)c1c(NC(=O)COC(=O)Cc2ccccc2[N+](=O)[O-])sc(C(=O)N(C)C)c1C | / | 2%[15.4 µM] | / | ? | 17 | 4.3
Cc1onc(-c2ccccc2)c1C(=O)Nc1cc(C(F)(F)F)ccc1N1CCOCC1 | -0.9% | 0% | ? | 27% | 10 | 1.6
CN(C)CCN1C(=O)C(=O)/C(=C(/O)c2ccc(OCc3ccccc3)cc2)C1c1ccncc1 (configuration not stated) | -3.3% | 0% | 3.4 | 12% | -6 | 0.1
CC(C)CN(C)C(=O)CC1C(=O)NCCN1C (configuration not stated) | / | 4%[15.4 µM] | -0.3 | 14% | 7 | -0.2
CN(C)/N=C/c1ccc(N2CCOCC2)cc1 | / | -16% | 0.0 | -14% | 61 | 0.1

Single values from the entries so far.
CCOCCCNC(=O)c1c(N)n(-c2ccc(S(N)(=O)=O)cc2)c2nc3ccccc3nc12 | gsp antag: -1%
Cc1cc(S(=O)(=O)N2CCCC2)c(C)s1 | Menin-MLL FL inh: 0.0

(next part)
SMILES | ClpP mod | gsp ag | Menin-MLL FL inh | gsp antag | TRPML1 blocker | TRPML1 agonist
CCOc1cc2[nH]c(=S)n(CCCN3CCCC3=O)c(=O)c2cc1OCC | -5.0% | 1% | 0.3 | -3% | 3 | 0.4
OC1c2c(F)cccc2N=C2CCCCCN21 (configuration not stated) | 4.4% | / | / | / | 15 | -0.3
CC(=O)NS(=O)(=O)c1ccc2sc(C)nc2c1 | 1.1% | -26% | -4.9 | 1% | -3 | -0.1
C[C@@H]1C(=O)O[C@H]2CC34[C@H]5C[C@@H](C(C)(C)C)[C@]36[C@@H](OC(=O)[C@@H]6O)O[C@@]4(C(=O)O5)[C@]21O (some centres not stated) | -3.2% | / | / | 0% | -13 | 1.0
COC(=O)C1=C(C)N=C2SC(C)C(=O)N2C1c1ccc(C(=O)OC)cc1 (configuration not stated) | -2.6% | -8% | 4.4 | -7% | 4 | 1.9
Cc1ccc(/C(N)=N/OC(=O)c2ccc3ccccc3c2)cc1 | ? | -9% | / | 6% | 1 | 0.7
CC(C)Oc1ccc(S(=O)(=O)N2CCCCC2)cc1NC(=O)CN1C(=O)NC2(CCCC2)C1=O | / | 21%[15.4 µM] | / | -11% | -4 | 0.2
CCc1ccccc1OCC(=O)Nc1ccc(S(=O)(=O)Nc2nc(C)cc(C)n2)cc1 | -2.3% | / | / | / | 16 | 1.2
CCOC(=O)N1CCN(CC(O)COc2c(C)cccc2C)CC1 (configuration not stated) | 2.2% | 6% | 1.1 | -9% | -14 | 2.7
CCCCc1nc2n[nH]c(N)c2c2c1CCC2 | -1.2% | -59%[inhibitor] | -1.6 | -9% | 25 | -0.1
O=C(O)CCN1C(=O)C2C3c4ccccc4C(c4ccccc43)C2C1=O (configuration not stated) | 3.9% | 0% | 3.7 | -13% | / | /
O=C(Nc1ccc(C(=O)O)cc1)/C(=C/c1cccc(Br)c1)NC(=O)c1ccco1 | / | -3% | 0.0 | 5% | 29 | 0.0
O=C(C1CC1)N1CCc2cc(Br)cc(S(=O)(=O)N3CCN(c4ccccn4)CC3)c21 | -6.7% | -15% | -1.6 | 7% | 19 | 0.2
